Screens deposited in PubChem by National Center for Advancing Translational Sciences (NCATS).
StopGo reporter – lowers the luciferase signal of an FMDV 2A StopGo reporter | human cells with a luciferase reporter of 2A StopGo recoding; control for the full effect not named in the record | Potency, µM (titrated, usually from 57.9 µM), for inactives: top-dose signal change, negative = less light | 410,000 compounds, 1.2% hits; active = well fitted falling curve with a large enough effect; inconclusive = small, poorly fitted or top-dose-only effect; inactive = no such curve, though single readings can be large or run the other way; tested in HEK293T cells; also: % is scaled to controls: 0 for no effect and ±100 for the full control effect; nearly all actives have a fitted effect of over 45% in size; luciferase light after 4 h
RE007 growth inh – less growth of the S. pombe RE007 Vpr strain. S. pombe RE007 Vpr strain, BacTiter-Glo ATP luminescence, 24 h; control for the full effect not named in the record. Potency, µM (titrated, usually from 92.2 µM), without a hit: top-dose activity change, negative = less growth. 360,000 compounds, 0.21% hits; active = well fitted falling curve with a large enough effect; inconclusive = small, poorly fitted or top-dose-only effect; inactive = no such curve, though single readings can be large or run the other way;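 also: % is scaled to controls: 0 for no effect and ±100 for the full control effect; nearly all actives have a fitted effect of over 50% in size; the assay follows cell death caused by Vpr and the record does not say whether a fall means rescue or toxicity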
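Fission yeast RE007 carrying one integrated HIV-1 vpr copy, seeded at OD 0.01 in PMG+AL medium with 23 nL pinned compound. Grown 24 h at 30 degrees; viability read by BacTiter-Glo luminescence after 5 min.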
Lassa entry inh – inhibitors of Lassa virus binding or cell entry | Lassa virus pseudotype entry inhibition, cell reporter; control for the full effect not named in the record | Potency, µM (series often up to 37.9 µM), for the others: at the highest dose activity change, negative = inhibition, actives largely listed as inhibitors | 300,000 compounds, 1.2% hits; active means well fitted inhibition curve with a large enough effect; inconclusive means small, poorly fitted or top-dose-only effect, or effect the other way; inactive means flat fitted curve, though single readings scatter; tested in HEK293 cells; also: % is scaled to controls: 0 for no effect and ±100 for the full control effect; nearly all actives have a fitted effect of over 50% in size; luciferase read-out
Cruzain noTriton – inhibitors of Trypanosoma cruzi cruzain without detergent; 200,000 compounds, 2.3% hits; P25779; Potency, µM, inactives show max response, negative = inhibition, usual class: inhibitors; purified cruzain, Z-FR-AMC fluorescence, no detergent; active = well fitted curve in the direction sought with a large enough effect; inconclusive = small, poorly fitted or top-dose-only effect, or another doubt; inactive = no such curve, though single readings can be large; an effect the other way counts as inactive or inconclusive;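 also: plate controls were enzyme without inhibitor for no effect and buffer without enzyme for full effect; nearly all actives have a fitted effect of over 40% in size; top concentration of the series not given in the record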
Target sequence (P25779 123-467 limits assumed): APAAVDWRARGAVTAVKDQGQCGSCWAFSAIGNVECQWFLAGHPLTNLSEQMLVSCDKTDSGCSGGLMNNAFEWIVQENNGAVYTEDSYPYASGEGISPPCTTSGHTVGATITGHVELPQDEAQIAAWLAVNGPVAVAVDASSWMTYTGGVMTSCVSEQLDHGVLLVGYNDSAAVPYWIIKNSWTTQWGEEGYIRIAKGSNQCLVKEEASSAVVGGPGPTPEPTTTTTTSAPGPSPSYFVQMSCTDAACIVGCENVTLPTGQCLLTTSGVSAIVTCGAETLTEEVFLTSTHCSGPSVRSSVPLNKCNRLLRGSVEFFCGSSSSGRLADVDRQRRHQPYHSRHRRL
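Detergent-free condition (0.00005% Triton X-100) in acetate buffer pH 5.5 with DTT. 1.5 nM enzyme and compound were pre-mixed 15 min, then 2 uM Z-FR-AMC substrate added; reaction progress from fluorescence change between first and third reads (60 s).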
NS1 inh – blocks influenza NS1 protein function; AID 2326; S. cerevisiae slowed by influenza A NS1, growth recovery by OD600; Potency, µM (titrated, usually from 46.1 µM), without a hit: top-dose activity, positive = more growth; 270,000 compounds, 0.4% hits; also: actives are rising curves; nearly all actives have a fitted effect of over 50% in size
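Growth recovery, yeast-based: influenza A NS1 expressed in S. cerevisiae causes slow growth, and suppressors are detected by OD600. The parent strain without NS1 is used as positive control.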
SARS PLpro yeast – SARS-CoV PLP inhibition in yeast. S. cerevisiae expressing SARS-CoV PLpro, growth rescue; control for the full effect not named in the record. Potency, µM (doses to about 32.9 µM), inactives show at the top dose activity, positive = growth rescue. 330,000 compounds, 0.19% hits; also: 0% is about no effect; nearly all actives have a fitted effect of over 55% in size; growth read by luminescence after 48 h
Marburg entry inh – inhibitors of Marburg virus binding or cell entry. Marburg virus pseudotyped entry inhibition, cell reporter; control for the full effect not named in the record; about a third of the inactives were read at about 46 µM. Potency, µM (doses to about 37.8 µM), inactives show at the top dose activity change, negative = inhibition, usual class: inhibitors. 300,000 compounds, 1.8% hits; active = well fitted inhibition curve with a large enough effect; inconclusive = small, poorly fitted or top-dose-only effect, or effect the other way; inactive = flat fitted curve, though single readings scatter; tested in HEK293 cells; about a fifth of its hits are not listed in these tables; also: % is scaled to controls: 0 for no effect and ±100 for the full control effect; luciferase read-out
Cruzain Triton – cruzain (T. cruzi) inhibition with detergent; Potency, µM, inactives show max response, negative = inhibition, hits mostly inhibitors; purified cruzain, Z-FR-AMC fluorescence, 0.01% Triton; P25779; 200,000 compounds, 0.43% hits; AID 1478; active = well fitted curve in the direction sought with a large enough effect; inconclusive = small, poorly fitted or top-dose-only effect, or another doubt; inactive = no such curve, though single readings can be large; an effect the other way counts as inactive or inconclusive;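 also: plate controls were neutral wells for no effect and buffer without enzyme for full effect; nearly all actives have a fitted effect of over 40% in size; top concentration of the series not given in the record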
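Detergent-containing arm of a paired screen for aggregation-based inhibition: 0.01% Triton X-100 present. Cruzain at 1.5 nM cleaved 2 uM Z-FR-AMC at pH 5.5 with 5 mM DTT; AMC fluorescence gain over 60 s measured activity.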
Active calls of the source: *; ? = inconclusive; . = no result given; & = joins results of further samples; [ ] = remark or other dose. Unless noted, calls follow the shape of the dose curve; as a rule, active means well fitted rising curve with a large enough effect; inconclusive means small, poorly fitted or top-dose-only effect; inactive means no such curve, though single readings can be large or run the other way. Potency is read from the fitted curve at half-maximal effect.

SMILES	StopGo reporter	RE007 growth inh	Lassa entry inh	Cruzain noTriton	NS1 inh	SARS PLpro yeast	Marburg entry inh	Cruzain Triton
O=C(CSc1nnc(NC(=O)c2ccccc2)s1)NCC1CCCO1 (stereo unspecified)	-16%	23%	-19%	.	6%	-6%	-14%	.
CCOC(=O)C(C#N)=CN1CCN(C(=O)CCCl)c2ccccc21	-12%	-4%	-9%	.	.	.	-10%	.
COC(=O)c1c(-c2cc(OC)c(OC)c(OC)c2)c2ccnc(OCc3ncccn3)c2c(=O)n1Cc1ccnc(C)c1	-5%	.	.	?	-21%	.	11%&11%&11%&11%	3.3%&-1.4%
COc1cc(NS(=O)(=O)c2c(C(=O)N3CCOCC3)c(C)n(C)c2C)cc(OC)c1OC	-5%	-13%	13%[46.1 µM]	.	-8%	-3%	?	.
CCN(C(=O)c1ccc(NC(=O)c2ccco2)cc1)c1ccccc1	7%	10%	-1%	.	3%	-5%	17%	.
COc1cccc(/C=N/c2oc(-c3ccccc3)cc2C#N)c1O	12%	?	-2%	13%	-2%	-11%	?	-0.9%
COC(=O)c1ccc2c(=O)n(Cc3ccc(C(=O)NC4CCCC4)cc3)c(=S)[nH]c2c1	-2%	7%	-3%	-5%	15%	17%	0%	-1.0%
CC(NC(=O)c1ccc(N2CCCC2)c([N+](=O)[O-])c1)c1ccc(S(N)(=O)=O)cc1 (stereo unspecified)	-4%	6%	-3%[46.1 µM]	.	9%	-3%	1%[46.1 µM]	.
Cc1ccc(C)c(S(=O)(=O)N2CCN(C(=O)CN3C(=O)C4CC=CCC4C3=O)CC2)c1 (stereo unspecified)	-15%	7%	-9%	.	.	0%	-1%	.
COCc1cc(=O)[nH]c(/N=C(\N)Nc2c(F)cccc2F)n1	0%	-4%	15%	.	11%	2%	7%[46.1 µM]	.
COC(=O)c1ccccc1NC(=O)C(CCS(C)(=O)=O)NC(C)=O (stereo unspecified)	-25%	9%	17%	-10%	3%	3%	22%	4.8%
COc1ccc(CNCC2COc3ccccc3O2)cc1 (stereo unspecified)	11%	-13%	.	.	3%	0%	.	.
O=C(Cn1nnc2sc(-c3ccccc3)cc2c1=O)Nc1cccc(C(F)(F)F)c1	-5%	.	-1%[46.1 µM]	-21%	.	.	0%[46.1 µM]	-7.3%
Nc1cc(=O)[nH]c(=O)n1-c1cccc(F)c1	-1%	3%	15%	.	2%	0%	-2%[46.1 µM]	.
Cc1ccc(CN2CC(C(=O)N3CCN(S(=O)(=O)c4c(F)cccc4F)CC3)CC2=O)cc1 (stereo unspecified)	-9%	-16%	9%	.	.	-2%	8%	.
C/C(N)=C(/C#N)C(=O)CSc1nc2cc(Cl)ccc2s1	-27%	11%	68%[14.3 µM]	-13%	-17%	-18%	2%	-20%
Cn1cnc(S(=O)(=O)N2CCCC(C(=O)Nc3ccc(OC(F)(F)F)cc3)C2)c1 (stereo unspecified)	-5%	.	1%[46.1 µM]	6%	.	.	.	-0.7%
CSc1nsc(SCC(=O)NCc2ccc(C)cc2)n1	-7%	3%	14%	.	-15%	-2%	9%	.
COc1ccc(CCN2CC(C(=O)N3CCN(C(C)=O)CC3)CCC2=O)cc1 (stereo unspecified)	1%	2%	-13%	.	5%	4%	-8%	.
Cc1cc(NC(=O)CCC2COc3ccccc3O2)no1 (stereo unspecified)	20%	11%	?	-23%	0%	-8%	?	-1.2%
Nc1c(C(=O)Nc2ccc(F)cc2)sc2nc(-c3cccs3)cc(C(F)(F)F)c12	-16%	.	-15%[46.1 µM]	-2%	.	.	.	-2.7%
O=C(CCC(=O)N(CC(=O)NC1CCCC1)C1CCCCC1)Nc1ccccn1	20%	6%	.	.	-1%	-2%	.	.
Cc1ccc(S(=O)(=O)NCC(=O)NCCc2c[nH]c3ccccc23)cc1C	?	-3%	-28%	.	9%	0%	-18%	.
CCOC(=O)C1=C(CSc2n[nH]c(N)n2)NC(=O)NC1C (stereo unspecified)	18%	7%	8%	-16%	4%	-1%	12%	0.6%
CC(C)NC(=O)Nc1ccc2c(c1)N(C)C(=O)c1ccccc1S2	-6%	.	?	14%	.	.	-15%[46.1 µM]	-2.8%
CC(C)(O)C#Cc1ccc(C(=O)N2CCN(C(=O)c3ccco3)CC2)cc1	-22%	4%	-19%	6%	-9%	-5%	0%[46.1 µM]	1.1%
O=C(NCc1ccco1)c1ccccc1-c1nc(-c2ccc(F)cc2)no1	5%	-19%	27%[46.1 µM]	.	-2%	0%	-7%[46.1 µM]	.
CCN(CC)S(=O)(=O)c1ccc(N2CCCC2)c(NS(=O)(=O)c2ccc(OC)cc2)c1	21%	.	?	8%	0%	?	-22%	-4.7%
COc1ccc(C(=O)N2CCCCCC2)cc1S(=O)(=O)N1CCOCC1	60%[activator]	0%	10%	.	6%	2%	-3%[46.1 µM]	.
Cc1ccc(OCC(=O)N2CCN(C(=O)c3ccco3)CC2)cc1	-1%	3%	7%	.	-1%	-1%	23%	.
CCc1ccc(C(=O)c2cn(CC(=O)Nc3ccc4c(c3)OCCO4)c3ccc(CC)cc3c2=O)cc1	-16%	.	10%[46.1 µM]	4%	.	.	25%[46.1 µM]	-0.9%
Cc1ccc(S[C@@H](CCN2CC[C@H](NC(=O)OCc3ccccc3)CCC2=O)c2ccccc2)cc1	-19%	7%	.	.	11%	10%	.	.
Cc1cc(=O)oc(C)c1C(=O)NCC1CCCO1 (stereo unspecified)	-10%	1%	4%	1%	1%	1%	18%	-2.3%
COc1ccccc1NC(=O)c1c(C)cc(C)nc1SCC(=O)Nc1ccc(C)cc1	-19%	.	-28%[46.1 µM]	-6%	.	.	?	-6.4%
CN1CCN(c2ccc(/C=C3\C(=O)NC(=S)N(c4cccc(Br)c4)C3=O)o2)CC1	0%	?	?	-22%	-8%	6%	?	-14%
Cc1noc(C)c1S(=O)(=O)Nc1ccc(C(=O)Nc2ccc(Br)cc2)cc1	2%	.	?	-8%	.	.	10%[46.1 µM]	-0.3%
CC(C)(C)c1nnc2sc(SCCN3C(=O)c4ccccc4C3=O)nn2c1=O	-24%	-23%	6%	-8%	-14%	1%	12%	-3.1%
C#CCOCCOCCOCCNc1nc(N2CCN(C(=O)[C@H]([C@@H](C)CC)n3cc([C@@H](N)CO)nn3)CC2)nc(N2CCN(C(=O)[C@H](CCCCN)n3cc([C@@H](N)CC(C)C)nn3)CC2)n1	15%	-1%	.	.	6%	0%	.	.
FC(F)(F)c1cccc(Cn2nnnc2-c2cccc(C(F)(F)F)c2)c1	-18%	-3%	13%	-7%	-9%	-4%	-16%	-6.6%
CCOC(=O)c1cccnc1SCC(=O)NC(C)CC (stereo unspecified)	21%	16%	9%	-9%	3%	5%	1%	-1.5%
COc1cccc(C(=O)Nc2ccc3nc(SCCOc4ccccc4)sc3c2)c1	0%	.	-9%[46.1 µM]	-6%	.	.	-8%[46.1 µM]	-2.9%
O=C(NCc1ccccc1)N(Cc1nc2ccccc2c(=O)[nH]1)C1CCCC1	4%	5%	-3%	-7%	-8%	?	9%	-3.6%
Cc1occc1-c1nnc(SCC(=O)NCCc2ccccc2)n1C(C)c1ccccc1 (stereo unspecified)	-19%	5%	-8%	25%	-36%	-1%	-2%	-3.2%
Cc1ccc(C(=O)NNC(=O)OC(C)(C)C)c(Cl)c1	17%	3%	?	-2%	-4%	-1%	10%	-0.5%
COc1cc(C(=O)N[C@@H](C)C(=O)N2CCC3(CC2)NCCc2[nH]cnc23)cc(OC)c1OC	15%	3%	6%[46.1 µM]	.	0%	-1%	-2%[46.1 µM]	.
COc1cc(NC(=O)CN(C)S(=O)(=O)c2ccc(-c3ccc(=O)[nH]n3)s2)cc(OC)c1	-4%	-6%	.	.	10%	0%	.	.
CCCCOc1ccc(S(=O)(=O)Nc2ccc(-c3ccc(N4CCCCCC4)nn3)cc2)cc1	3%	.	1%[46.1 µM]	-24%	.	.	.	-3.7%
Cc1cccn2c(/C=N/OCc3cccc(F)c3)c(-c3ccc(Cl)cc3)nc12	-22%	-17%	-2%	-26%	13%	5%	12%[46.1 µM]	-2.7%
COc1ccc(/C=N/NC(=O)CC(=O)NCc2cccnc2)c(OC)c1	-4%	-10%	-2%	-9%	-13%	-11%	6%	-4.0%
COc1cc(OC)cc(C(=O)NCC2CCCN(C(=O)c3oc(C)cc3C)C2)c1 (stereo unspecified)	-6%	5%	-23%	.	-2%	9%	-6%	.
CCCSc1nc(=O)c2c(n1C)NC(=O)CC2c1cccc(F)c1F (stereo unspecified)	4%	.	-6%[46.1 µM]	-8%	.	.	4%[46.1 µM]	-3.4%
NC1(C(=O)O)CSSC1	-1%	-2%	?	.	.	.	?	.
Cc1noc(C)c1CSCC(=O)Nc1nc2c(F)cc(F)cc2s1	-6%	0%	9%	.	.	4%	14%	.
Cc1ccc(S(=O)(=O)Nc2nonc2C)cc1	-6%	18%	4%	8%	-1%	-3%	-18%	-0.1%
Cc1nn(-c2ccccc2)c(Cl)c1C(=O)N1CCN(C)CC1	3%	5%	.	.	9%	0%	.	.
CCNc1nnc(SCC(=O)N2c3ccccc3NC(=O)CC2C)s1 (stereo unspecified)	-4%	27%	8%	.	.	-4%	-9%	.
CCn1c(C)cc(/C=C2/NC(=O)N(Cc3ccccc3F)C2=O)c1C	8%	13%	-6%	?	12%	2%	?	-1.8%
COC(=O)c1c(SCC(=O)NC2CCCCC2)[nH]c2ccccc2c1=O	6%	8%	.	.	2%	24%	.	.
Cc1cccc(C)c1NC(=S)N/N=C/c1ccc(C(=O)O)cc1	14%	8%	15%	.	8%	1%	17%[46.1 µM]	.
Nc1nnc(CC(=O)N/N=C/c2ccc([N+](=O)[O-])cc2)s1	-3%	-9%	.	.	10%	0%	.	.
CSc1ccc(S(=O)(=O)N2CCC(C(=O)NCCN3CCOCC3)CC2)cc1	11%	6%	-3%	.	?	-6%	?	.
Cc1ccc2cc3cc(C(=O)NCCCN4CCCC4)oc3nc2c1	-19%	-3%	.	.	-3%	-7%	.	.
